Rango complex inh: Rango-importin beta binding inhibition; Q14974; Rango CFP/YFP FRET sensor + importin beta, 45 min; Potency, µM (series often up to 92.2 µM), without a hit: at the top dose inhibition of complex formation; hit rate 0.031% among 340,000; AID 540263; active = rising FRET ratio curve, often small or poorly fitted; inconclusive = mostly compound fluorescence or quenching in the first reads; inactive = flat curves in all reads;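 note: potency is the fitted concentration of half-maximal effect; 0% = DMSO wells and 100% = buffer wells lacking importin beta; nearly all actives have a fitted effect of over 15% in size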
Target sequence (Q14974 whole entry, looked up): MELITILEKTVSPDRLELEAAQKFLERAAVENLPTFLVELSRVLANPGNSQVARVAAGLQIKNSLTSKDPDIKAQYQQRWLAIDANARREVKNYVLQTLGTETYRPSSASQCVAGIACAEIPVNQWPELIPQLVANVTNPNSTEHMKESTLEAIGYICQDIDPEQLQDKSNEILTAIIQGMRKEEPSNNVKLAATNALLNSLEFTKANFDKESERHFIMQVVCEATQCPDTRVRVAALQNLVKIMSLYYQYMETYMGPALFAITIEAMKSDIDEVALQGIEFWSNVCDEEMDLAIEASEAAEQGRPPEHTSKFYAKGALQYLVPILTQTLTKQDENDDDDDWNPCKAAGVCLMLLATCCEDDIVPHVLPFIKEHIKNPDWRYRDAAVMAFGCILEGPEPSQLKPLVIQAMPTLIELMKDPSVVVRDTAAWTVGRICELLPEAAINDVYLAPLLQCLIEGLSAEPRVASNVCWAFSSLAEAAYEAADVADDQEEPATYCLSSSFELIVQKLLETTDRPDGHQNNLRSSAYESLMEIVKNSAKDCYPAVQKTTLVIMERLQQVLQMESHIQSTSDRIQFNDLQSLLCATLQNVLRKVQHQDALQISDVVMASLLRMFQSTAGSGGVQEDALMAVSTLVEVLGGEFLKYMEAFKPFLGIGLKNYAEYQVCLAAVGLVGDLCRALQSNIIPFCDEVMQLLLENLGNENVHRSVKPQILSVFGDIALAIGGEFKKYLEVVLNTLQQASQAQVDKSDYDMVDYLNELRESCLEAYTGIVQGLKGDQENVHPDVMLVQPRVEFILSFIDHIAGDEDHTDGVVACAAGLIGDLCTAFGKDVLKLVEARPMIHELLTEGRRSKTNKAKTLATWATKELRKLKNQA
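FRET biosensor (snurportin 1 IBB flanked by EYFP and cerulean), 50 nM, with compound 5 min, then 0.125 microM importin beta in PBS, 1 mM DTT, 0.02% Tween-20, 0.1% BSA. CFP/YFP ratio read after 45 min at room temperature; pre-read flags interference.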
miR-21 reporter: miR-21 reporter, rising signal | HeLa miR-21 FLuc reporter, luciferase, 48 h | Potency, µM (doses to about 38.3 µM), for the others: at the highest dose reporter change, positive = more light | 340,000 tested, under 10 active | AID 2288; active = well fitted rising curve with a large enough effect; inconclusive = small, poorly fitted or top-dose-only effect; inactive = no such curve, though single readings can be large or run the other way;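 note: % of control where 0% means no effect; miR-21 action dims this reporter so a rising signal means less miR-21 action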
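HeLa miR-21-FLuc reporter line, endogenous miR-21; 2000 cells/well in DMEM/10% FBS; compound titration up to ~40uM final, 48 h, 37 degree Celsius; luciferase detection reagent, 15 min lysis, CCD luminescence.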
GLA inh pH 4.5: alpha-galactosidase A (human) inhibition, pH 4.5. activity change, negative = inhibition, % at 105 µM. 230,000 tested, under 10 active. purified enzyme, 4-MU-alpha-Gal fluorescence, pH 4.5. AID 1467. P06280; inconclusive = small, poorly fitted or top-dose-only inhibition, or a rising curve; inactive = flat fitted curve, though single readings scatter; no compound was filed as active;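 note: 0% = full activity with enzyme and -100% = basal without enzyme; dose as in the result columns while the protocol names 77 µM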
Rango release inh: inhibition of RanGTP-driven Rango-importin beta dissociation; O95149+P62826; Biochemical FRET Rango-importin beta, RanGTP-induced dissociation; Potency, µM (titrated, usually from 46.1 µM), for the others: at the highest dose activity change, negative = inhibition; hit rate 0.071% among 340,000; AID 540253; active means falling FRET ratio curve, often poorly fitted, with flat reads before Ran was added; inconclusive means other falling curves, or compound fluorescence or quenching; inactive means flat or rising ratio curve;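 note: potency is the fitted concentration of half-maximal effect; % of control where 0% means no effect; nearly all actives have a fitted effect of over 45% in size; -100% = wells without RanGTP and RCC1; the record marks most hits as doubtful in a second field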
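FRET read at 45 min, room temperature: inhibitors block the CFP/YFP signal rise when RanGTP (0.6 uM Ran, 2 mM GTP, 0.2 uM RCC1) frees Rango (0.1 uM) from importin beta (0.25 uM). Pre-read after 5 min compound exposure flags interference.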
The depositor's hits bear a star. Not all compounds are listed; rates above refer to the full screens.

Screening CCOC(=O)C1CCN(C(=O)c2sccc2Cl)CC1 returned Rango complex inh -1.3%, miR-21 reporter -0.7%, GLA inh pH 4.5 -0.8 and Rango release inh 17.5%.
For N#Cc1ccccc1Cn1c(=O)n(-c2ccc(CC(=O)NCc3ccco3)cc2)c(=O)c2sccc21 the results were Rango complex inh -2.5%, miR-21 reporter -5.3%, GLA inh pH 4.5 -0.1 and Rango release inh -4.9%.
`CC(=O)c1cnc2cc(-c3ccc(Cl)cc3)nn2c1C` gave Rango complex inh inconclusive, miR-21 reporter -53.1%, GLA inh pH 4.5 -3.7 and Rango release inh 5.4%.
Cc1cc(C)n2nc(SC(C)C(=O)NC3CCCCC3C)nc2n1 (stereo unspecified) was read as Rango complex inh -2.6% and Rango release inh -4.7%.
For CCOC(=O)c1ccc(CSc2ncn[nH]2)o1 the results were Rango complex inh 4.5%, miR-21 reporter -12.2%, GLA inh pH 4.5 4.7 and Rango release inh 13.8%.
CC(C)N(C(=O)c1ccccc1-c1ccccc1)C(C)C was read as Rango complex inh 3.7%, miR-21 reporter 6.7%, GLA inh pH 4.5 6.8 and Rango release inh -7.7%.
`CCC(Oc1ccccc1OC)C(=O)Nc1ccc2c(c1)OCCO2` (stereo unspecified) gave Rango complex inh -3.6%, miR-21 reporter -9.5% and Rango release inh 7.7%.
For O=C(Nc1cc2c3c(c1)CC(=O)N3CCC2)c1ccccc1F the results were Rango complex inh -1.7% and Rango release inh 0.9%.
`Cc1cc(=O)oc2c1ccc1oc(/C(=N/O)c3ccccc3)c(C)c12` gave Rango complex inh 0.1%, miR-21 reporter -4.1%, GLA inh pH 4.5 -7.5 and Rango release inh 4.6%.
For Cc1ccccc1N1CCN(C(=O)C2CCCCC2)CC1 the results were Rango complex inh -0.1%, miR-21 reporter -2.1%, GLA inh pH 4.5 -1.7 and Rango release inh 1.1%.
`CCN(CC(=O)NCc1ccc(Cl)cc1)S(=O)(=O)c1ccc(NC(C)=O)cc1` gave Rango complex inh -3.3%, miR-21 reporter 5.2%, GLA inh pH 4.5 -2.5 and Rango release inh 19.6%.
`O=C(NCc1cccnc1)C1CCN(C(=O)c2ccc(Cl)cc2Cl)CC1` gave Rango complex inh -1.5%, miR-21 reporter -9.3%, GLA inh pH 4.5 -0.8 and Rango release inh -15.2%.
Screening O=C(CCCCCn1c(=S)[nH]c2ccc(N3CCOCC3)cc2c1=O)NCc1ccccc1Cl returned Rango complex inh inconclusive, miR-21 reporter -4.7%, GLA inh pH 4.5 -0.9 and Rango release inh inconclusive.
Screening O=c1c(Cc2ccccc2)c(O)c2cccc3c4c(n1c23)CCCC4 returned Rango complex inh -1.2%, miR-21 reporter -8.5%, GLA inh pH 4.5 6.7 and Rango release inh -5.7%.
For COc1ccc(-c2cc3ccccc3n2CC(O)CN2CCC(C)CC2)cc1 (stereo unspecified) the results were Rango complex inh 0.0%, miR-21 reporter 12.1%, GLA inh pH 4.5 -17.6 and Rango release inh -8.9%.
`Cc1ccc(S(=O)(=O)NC2CCCCCCC2)cc1` gave Rango complex inh -4.1%, miR-21 reporter -0.3% and Rango release inh inconclusive.
`COc1ccc(C2(C)NC(=O)N(CC(=O)Nc3ccc(Br)cc3F)C2=O)cc1OC` (stereo unspecified) gave Rango complex inh 1.2%, miR-21 reporter 1.8% and Rango release inh 22.8%.
For COc1ccc(C2CC(c3cccs3)=NN2C(=O)c2ccc(Br)o2)cc1 (stereo unspecified) the results were Rango complex inh -2.1%, miR-21 reporter -4.3%, GLA inh pH 4.5 -3.5 and Rango release inh 2.4%.
For CCOC(=O)C1=C(COC(=O)c2sccc2C)NC(=O)NC1C (stereo unspecified) the results were Rango complex inh 1.4% and Rango release inh 14.8%.
For CCCCN(C(=O)COc1ccc(NC(C)=O)cc1)C1CCS(=O)(=O)C1 (stereo unspecified) the results were Rango complex inh -1.3%, miR-21 reporter 3.9%, GLA inh pH 4.5 6.2 and Rango release inh 4.2%.
COc1ccc(COC(=O)Nc2cc3c(C(F)(F)F)nn(C)c3s2)cc1 was read as Rango complex inh 3.1%, miR-21 reporter 0.1%, GLA inh pH 4.5 -6.1 and Rango release inh -15.7%.
For Cc1cc(F)ccc1S(=O)(=O)Nc1ncnc2scc(-c3ccc(F)cc3)c12 the results were Rango complex inh -0.3%, miR-21 reporter 0.0%, GLA inh pH 4.5 -1.5 and Rango release inh 4.2%.
`O=C(NCN1C(=O)C2C3C=CC(C3)C2C1=O)Nc1ccccn1` (stereo unspecified) gave Rango complex inh -1.1%, miR-21 reporter -0.4%, GLA inh pH 4.5 -0.3 and Rango release inh 1.0%.
`O=C(c1ccc(NC2=NC3CS(=O)(=O)CC3S2)cc1)N1CCN(c2ccccc2F)CC1` (stereo unspecified) gave Rango complex inh inconclusive, miR-21 reporter 2.3% and Rango release inh 17.8%.
For O=C(CN1C(=O)NC(c2ccccc2)(c2ccccc2)C1=O)NCc1cccs1 the results were Rango complex inh -0.4% and Rango release inh 11.6%.
For Cc1cc(/C=N/N2CCN(C)CC2)c(C)n1-c1ccc(Cl)cc1 the results were Rango complex inh -1.9%, miR-21 reporter 1.3%, GLA inh pH 4.5 -4.3 and Rango release inh 7.4%.
`CCCCSc1nc2c(c(=O)n1CC)SC(C)C2` (stereo unspecified) gave Rango complex inh -2.6%, miR-21 reporter -8.1%, GLA inh pH 4.5 -5.9 and Rango release inh 0.0%.
Screening COc1ccccc1[C@@H]1C(c2cccc(Cl)c2)=NN(c2ccc(Br)cc2)[C@H]1C(=O)N1CCOC1=O returned Rango complex inh inconclusive, miR-21 reporter -11.6%, GLA inh pH 4.5 inconclusive and Rango release inh inconclusive.
Clc1ccc2c(c1)C(C1=NCCN1)c1ccccc1CS2 (stereo unspecified) was read as Rango complex inh 3.4%, miR-21 reporter 29.6%, GLA inh pH 4.5 -0.2 and Rango release inh -0.7%.
Screening O=C(Nc1cc([N+](=O)[O-])ccc1O)c1cccc(C(=O)Nc2cc([N+](=O)[O-])ccc2O)c1 returned Rango complex inh inconclusive, miR-21 reporter -1.7% and Rango release inh 3.8%.
CCc1c(C)nc(N2CCN(c3cccc(OC)c3)CC2)[nH]c1=O was read as Rango complex inh -1.6%, miR-21 reporter 3.8% and Rango release inh -9.6%.
`O=C(NC1CC1)C1CCN(Cc2cnn(-c3ccccc3)c2-n2cccc2)CC1` gave Rango complex inh 4.8%, miR-21 reporter -0.1%, GLA inh pH 4.5 -3.1 and Rango release inh 0.8%.
`COc1ccccc1C(=O)NC(CCSC)C(=O)NCC(c1cccs1)N(C)C` (stereo unspecified) gave Rango complex inh 1.8% and Rango release inh -20.3%.
`CNC(=O)N1c2ccccc2CCc2ccccc21` gave Rango complex inh 0.0%, miR-21 reporter 7.3% and Rango release inh 0.5%.
CCCCn1c(N)c(N(CC(C)C)C(=O)c2ccc3c(c2)NC(=O)C(C)S3)c(=O)[nH]c1=O (stereo unspecified) was read as Rango complex inh -0.9%, miR-21 reporter -1.1% and Rango release inh 10.8%.
Cc1cc(C)cc(OCc2nc(-c3cccnc3)no2)c1 was read as Rango complex inh -6.4%, miR-21 reporter -1.6%, GLA inh pH 4.5 -6.2 and Rango release inh -1.3%.

Ordered by molecular weight (rising): 3 of the compounds above.
`CCCCSc1nc2c(c(=O)n1CC)SC(C)C2` (stereo unspecified) gave Rango complex inh -2.6%, miR-21 reporter -8.1%, GLA inh pH 4.5 -5.9 and Rango release inh 0.0%.
For O=C(CN1C(=O)NC(c2ccccc2)(c2ccccc2)C1=O)NCc1cccs1 the results were Rango complex inh -0.4% and Rango release inh 11.6%.
Screening O=C(Nc1cc([N+](=O)[O-])ccc1O)c1cccc(C(=O)Nc2cc([N+](=O)[O-])ccc2O)c1 returned Rango complex inh inconclusive, miR-21 reporter -1.7% and Rango release inh 3.8%.

The list continues:
`Cc1ccc(NC(=O)CSc2ncc3ccccn23)cc1C` gave Rango complex inh -2.6%, miR-21 reporter -23.2%, GLA inh pH 4.5 0.1 and Rango release inh 12.4%.
For COc1ccc(S(=O)(=O)N2CCc3ccccc32)cc1C(=O)NCC(c1ccco1)N1CCCC1 (stereo unspecified) the results were Rango complex inh -4.9% and Rango release inh 4.8%.
Screening Cc1cc(S(=O)(=O)N2CCOCC2)ccc1OCC(=O)N1CCCC1 returned Rango complex inh -0.4%, miR-21 reporter -0.8% and Rango release inh -9.8%.
For Cc1csc(NC(=O)Cc2ccccc2[N+](=O)[O-])n1 the results were Rango complex inh 0.9%, miR-21 reporter -19.7%, GLA inh pH 4.5 -1.6 and Rango release inh 0.4%.
For NC(=O)c1ccc(-n2nnnc2SCC(=O)NC2CCCCC2)cc1 the results were Rango complex inh 0.1%, miR-21 reporter 4.6% and Rango release inh 8.1%.
For Cn1cc(Br)c(-c2cccc(N3C(=O)CCCC3=O)c2)n1 the results were Rango complex inh inconclusive, miR-21 reporter -7.7%, GLA inh pH 4.5 5.0 and Rango release inh inconclusive.
Screening FC(F)(F)c1nc(N2CCN(c3ccccc3)CC2)nc2c1CCCCC2 returned Rango complex inh 3.2%, miR-21 reporter -8.7%, GLA inh pH 4.5 -4.2 and Rango release inh 3.2%.
`O=[N+]([O-])c1ccc2nc(SCc3cn4cc(Cl)ccc4n3)[nH]c2c1` gave Rango complex inh 0.1%, miR-21 reporter -8.8%, GLA inh pH 4.5 6.1 and Rango release inh 11.2%.
Cc1ccc(CN2CCC(C(=O)Nc3ccc(Oc4cccnc4)cc3)CC2)cc1 was read as Rango complex inh -1.1%, miR-21 reporter 20.4% and Rango release inh 8.1%.
For Cc1nc(NC(=O)CSc2nccn2C)sc1C(=O)N(C)C the results were Rango complex inh -0.9%, miR-21 reporter -21.4% and Rango release inh 12.9%.
`CCCCOc1ccc(C(=O)N2CCN(c3ncccn3)CC2)cc1` gave Rango complex inh 4.0%, miR-21 reporter -1.4% and Rango release inh 36.8%.
For COc1cc(C(=O)Oc2ccccc2N)cc(OC)c1OC the results were Rango complex inh -1.8%, miR-21 reporter -1.6%, GLA inh pH 4.5 -4.2 and Rango release inh 0.2%.
`O=C1N(Cc2ccccc2)CC2(Br)COCOC12O` (stereo unspecified) gave Rango complex inh -1.3% and Rango release inh -3.0%.
Screening Cc1c(NS(=O)(=O)c2ccc(N3CCN(C)CC3)c([N+](=O)[O-])c2)c(=O)n(-c2ccccc2)n1C returned Rango complex inh 0.3%, miR-21 reporter -1.2%, GLA inh pH 4.5 -8.7 and Rango release inh 8.5%.
CC1CC(C)CN(C(=O)CSc2nnc(-c3ccc(Cl)s3)o2)C1 (stereo unspecified) was read as Rango complex inh -2.5%, miR-21 reporter -5.3%, GLA inh pH 4.5 4.5 and Rango release inh 18.8%.
CC1CC(C)CN(S(=O)(=O)c2ccc(C(=O)N3CCOCC3)cc2)C1 (stereo unspecified) was read as Rango complex inh -0.7%, miR-21 reporter 3.8% and Rango release inh 12.6%.
For Cc1ccc(Nc2ncccc2C(=O)O)cc1C the results were Rango complex inh 0.6%, miR-21 reporter -51.3% and Rango release inh -0.1%.
For CCOC(=O)C1CCCN(c2c(NCCN(CC)c3ccccc3)c(=O)c2=O)C1 (stereo unspecified) the results were Rango complex inh 2.9%, miR-21 reporter -4.3%, GLA inh pH 4.5 7.7 and Rango release inh 15.5%.
Screening CCN(CC)CCNc1nc2cc(OC)c(OC)cc2c2nc(-c3ccccc3)nn12 returned Rango complex inh -3.5%, miR-21 reporter -2.3%, GLA inh pH 4.5 -10.6 and Rango release inh 6.1%.
CN(Cc1ccccc1)S(=O)(=O)c1ccc(NC(=O)C2CCCCC2C(=O)O)cc1 (stereo unspecified) was read as Rango complex inh 2.8% and Rango release inh 16.1%.
Screening O=c1c2ccccc2c(C=Nc2cccc(S(=O)(=O)NC3=NCCCCC3)c2)c(O)n1Cc1ccccc1 returned Rango complex inh inconclusive, miR-21 reporter -1.1%, GLA inh pH 4.5 -17.8 and Rango release inh inconclusive.
C=CCC[C@H](Cc1ccc(F)cc1)C(=O)OC[C@@H]1CCCN1C(=O)[C@@H](CC=C)CC(=O)NCCO was read as Rango complex inh -2.4% and Rango release inh -4.1%.
Screening COc1cc(C(=O)NCC(c2ccco2)N2CCCC2)ccc1OCc1ccccc1 (stereo unspecified) returned Rango complex inh -0.3% and Rango release inh inconclusive.

Source: PubChem (National Center for Advancing Translational Sciences (NCATS))
